Screens from PubChem BioAssay.
VDR inh – blocks the human vitamin D receptor. VDR-SRC2-3 peptide fluorescence polarization, 2 h. Potency, µM, for the others: max response, negative = inhibition, usual class: inhibitors. hit rate 0.93% among 400,000. AID 504847; active means well fitted inhibition curve with a large enough effect; inconclusive means small, poorly fitted or top-dose-only effect, or another doubt; inactive means no such curve, though single readings can be large or run the other way; further: series mostly up to about 120 µM
Target sequence (P11473 whole entry, looked up): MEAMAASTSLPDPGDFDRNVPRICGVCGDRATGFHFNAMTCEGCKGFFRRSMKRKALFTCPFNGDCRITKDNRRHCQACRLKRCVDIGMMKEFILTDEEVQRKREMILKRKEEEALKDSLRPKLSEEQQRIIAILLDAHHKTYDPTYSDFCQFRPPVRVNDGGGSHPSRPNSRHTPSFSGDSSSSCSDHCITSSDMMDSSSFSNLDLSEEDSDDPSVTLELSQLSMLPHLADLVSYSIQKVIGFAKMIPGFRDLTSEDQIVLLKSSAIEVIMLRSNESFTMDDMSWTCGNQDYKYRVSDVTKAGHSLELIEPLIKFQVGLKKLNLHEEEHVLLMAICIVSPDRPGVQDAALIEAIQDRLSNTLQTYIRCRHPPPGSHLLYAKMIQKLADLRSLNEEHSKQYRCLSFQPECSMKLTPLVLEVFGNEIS
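Fluorescence polarization assay of small-molecule disruption of VDR binding to coregulator peptide SRC2-3. Compounds and controls pin-transferred, then read after 2 h incubation at ambient room temperature.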
* hit, by the source's call; ? = inconclusive; & = joins results of further samples; [ ] = dose if it differs, or a comment. On the % scale 0 is the no-effect control and ±100 the full control effect; potency means the concentration at half of the fitted maximal effect.

Structure,VDR inh
Cc1cccc(N2CCN(C(=O)C3CCN(S(=O)(=O)c4cn(C)cn4)CC3)CC2)c1C,5%
COc1ccccc1C(=O)N/C(=C\c1ccccc1)C(=O)NC(Cc1ccccc1)C(=O)O (stereo not drawn),6%
Cc1sc2ncnc(OCC(=O)c3ccc(S(=O)(=O)N4CCCC4)cc3)c2c1C,-17%
O=C(COC(=O)CSc1ccc2ccccc2c1Br)NC1CC1,-8%
O=C(CN1C(=O)C2C3C=CC(C3)C2C1=O)Nc1ccc(S(=O)(=O)Nc2nccs2)cc1 (stereo not drawn),7%
Cc1ccc(NC(=O)CN(C)Cc2ccc(Cl)cc2)cc1,-10%
COc1ccc(N(CC(=O)Nc2cccc3ccccc23)S(C)(=O)=O)cc1,4%
CN1C2CCC1/C(=C/c1cccn1C)C(=O)/C2=C\c1cccn1C,-13%

Fetched one by one from the entries so far:
Structure,VDR inh
O=C(COC(=O)CSc1ccc2ccccc2c1Br)NC1CC1,-8%
COc1ccc(N(CC(=O)Nc2cccc3ccccc23)S(C)(=O)=O)cc1,4%
Cc1ccc(NC(=O)CN(C)Cc2ccc(Cl)cc2)cc1,-10%
Cc1sc2ncnc(OCC(=O)c3ccc(S(=O)(=O)N4CCCC4)cc3)c2c1C,-17%

Next section:
Structure,VDR inh
O=C(NCc1ccco1)[C@@H]1CSC2c3ccccc3C(=O)N21 (stereo partly drawn),13%
COc1cccc(C(=O)N(C)C(C)c2nc3ccccc3s2)c1 (stereo not drawn),3%
CC(C)(C)c1cc(=O)n(-c2ccccc2)[nH]1,10µM*
O=S(=O)(Cc1ccc(Cl)cc1)Oc1ccc(Cl)cc1,7%
CC(C)c1ccc(S(=O)(=O)N2CCN(C(=S)NCc3ccco3)CC2)cc1,?
CCc1c(C)c2c(C)[nH]nc2oc1=O,0%
C=C(C)C(=O)Nc1cccc(C2=NOC3(C2)C[C@H](C(N)=O)N(C(=O)c2ccccc2C(=O)c2ccccc2)C3)c1 (stereo partly drawn),8%
CC#CC(=O)N1CCC(C(=O)Nc2ccc(Oc3ccccc3)nc2)CC1,-3%

VDR inh: entries above that show a hit.
Structure,VDR inh
CC(C)(C)c1cc(=O)n(-c2ccccc2)[nH]1,10µM*

The listing continues.
Structure,VDR inh
COC(=O)c1ccc(-n2c(C)nc(=O)c(-c3ccccc3)c2C)cc1,-2%
CNC(=O)[C@H]1O[C@@H](n2cnc3c(N)ncnc32)[C@H](O)[C@@H]1O,3%
Cc1ccc(Cl)cc1N1CCN(C(=O)c2cnn(C(C)(C)C)c2C2CCN(C(=O)OC(C)(C)C)CC2)CC1,-1%
CCn1c(-c2ccccc2SC)n[nH]c1=S,5%
CC(=O)c1ccc(N2CCN(c3ccnc4cc(Cl)ccc34)CC2)cc1,-5%
O=C(CSc1nccn1Cc1ccc(F)cc1)Nc1ccc2c(c1)OCCO2,4%
CCC(C)C(=O)Nc1nc(C)c(-c2csc(Nc3ccccc3OC)n2)s1 (stereo not drawn),-8%
COc1cc(C2Nc3ccc4ccccc4c3C3=C2C(=O)CC(C)(C)C3)ccc1OCC(=O)O (stereo not drawn),-4%
CCOc1ccc(NC(=O)c2ccc(NCC(=O)N3CCCCCC3)cc2)cc1,6%
COCCCN(CCC#N)C(=O)c1c(-c2c(Cl)cccc2Cl)noc1C,0%
CC(=O)N(CCc1ccccc1C)Cc1cc2cc(C)ccc2[nH]c1=O,12%
O=C(Nc1nc2ccccc2s1)c1ccccc1[N+](=O)[O-],5%
CCOC(=O)CSc1nc2sc3c(c2c(=O)n1Cc1ccccc1)CCC(C(C)(C)C)C3 (stereo not drawn),-5%
COc1ccc(CN(C)C(=O)COC(=O)c2cnc(Cl)c(Cl)c2)cc1,6%
CCCN1CCN(CC(=O)Nc2cc(OCC)ccc2OCC)CC1,-16%
CCOC(=O)c1noc2ncnc(NCc3ccccc3OC)c12,17%
O=C(NC1CC(=O)N(c2ccc(F)cc2)C1)c1ccco1 (stereo not drawn),8%
Cn1c(Cl)c(/C=N/OC(=O)C2CC2)c2ccccc21,8%
O=C(NCCCN1CCCCC1)c1cc(Sc2ccc(Cl)cc2)nc2ccccc12,3%
COc1ccc(NC(=O)C2CCC(CNc3c(N4CCCCC4)c(=O)c3=O)CC2)c(OC)c1 (stereo not drawn),1%
Nc1c2c(nc3ccccc13)CCCC2=O,1%
COc1ccc(CCNC(=O)CCCCn2c(=O)[nH]c3ccccc3c2=O)cc1OC,-4%
COc1ccc(N2CCN(S(=O)(=O)c3ccc4oc(=O)ccc4c3)CC2)cc1,-7%
O=C(C[n+]1ccc(C(=O)N/N=C/c2ccc(O)cc2)cc1)c1ccccc1,-12%
CCN(CC)CCOC(=O)c1ccc(NC(=O)CNC(=O)c2ccccc2)cc1,5%
Cc1cc(=O)oc(C)c1C(=O)N1CCN(C)CC1,17%
CC(=O)c1cc2c(cc1NS(=O)(=O)c1ccc(C)cc1)OCCO2,8%
COc1ccccc1C1C(C(N)=O)=C(C)Nc2nc(-c3ccccc3Cl)nn21 (stereo not drawn),-23%
c1ccc(CCNc2nc(-c3cccnc3)cs2)cc1,19%
Clc1ccc(-c2csc(N3CCCCCC3)n2)cc1,-24%
O=C(Nc1ccncc1)C1CC(=O)N(c2ccccc2)C1 (stereo not drawn),-9%
COc1ccc(N(C)S(=O)(=O)c2ccc(Cl)c(C(=O)NNC(=O)c3ccccc3O)c2)cc1,-5%
O=C(NCC1OCCCN1S(=O)(=O)c1cc(F)ccc1F)C(=O)NC1CCCCC1 (stereo not drawn),5%
O=C(CCN1C(=O)S/C(=C\c2ccccc2)C1=O)Nc1ccc(O)cc1C(=O)O,?
CSCCC(NC(=O)c1ccccc1)C(=O)NCCc1ccc2c(c1)OCCO2 (stereo not drawn),-26%
O=C(CSc1nc2ccsc2c(=O)n1NC(=O)c1ccccc1)Nc1nccs1,4%
COC(=O)c1ccc(N2NC(=O)/C(=C/c3ccc(-c4ccc(Cl)c(C(=O)O)c4)o3)C2=O)cc1,79µM*
c1coc(CNC2CCCCC2)c1,13%
Cc1onc(-c2ccccc2Cl)c1C(=O)Nc1nnc(Cc2ccc(Cl)cc2)s1,1%
Cc1ccccc1Cn1c(SCc2ccc(C(=O)NC3CCCCC3)cc2)nc2ccncc21,11%
CCc1ccccc1NC(=O)C1CCN(S(=O)(=O)c2ccc3[nH]c(=O)ccc3c2)CC1,3%
CCSc1nc2cc(OC)c(OC)cc2c(=O)n1CC,7%
CCc1ccc(C(=O)COC(=O)C2=NN(c3ccccc3)C(=O)CC2)cc1,-3%
CCOc1ccc(S(=O)(=O)N2CCC(C(=O)Nc3cc(S(C)(=O)=O)ccc3Cl)CC2)cc1,-25%
Cc1cccc(-n2c(=O)c(C#N)cc3c(=O)n4ccccc4nc32)c1,5%
Cc1ccc2c(C)c(C(=O)N3CCN(c4ccncc4)CC3)oc2c1C,12%
Cc1c[n+](CC(=O)c2ccccc2)c(C)cn1,1%
CCOc1ccccc1NC(=O)C1CCCN(c2c(CC)c(C)nc3ncnn23)C1 (stereo not drawn),7%

Look-ups from the entries so far:
`Cc1ccccc1Cn1c(SCc2ccc(C(=O)NC3CCCCC3)cc2)nc2ccncc21` | VDR inh = 11%
`O=C(NC1CC(=O)N(c2ccc(F)cc2)C1)c1ccco1` (stereo not drawn) | VDR inh = 8%
`CCCN1CCN(CC(=O)Nc2cc(OCC)ccc2OCC)CC1` | VDR inh = -16%
`Cn1c(Cl)c(/C=N/OC(=O)C2CC2)c2ccccc21` | VDR inh = 8%
`COc1ccccc1C(=O)N/C(=C\c1ccccc1)C(=O)NC(Cc1ccccc1)C(=O)O` (stereo not drawn) | VDR inh = 6%
`CCn1c(-c2ccccc2SC)n[nH]c1=S` | VDR inh = 5%

(continued)
Structure,VDR inh
N#Cc1ccc(CN2CCC3(CC2)CCN(C(=O)c2cc(C(F)(F)F)cc(C(F)(F)F)c2)CC3)cc1,?
Cc1cccc(OCCNC(=S)NC(=O)c2cncc(Br)c2)c1,10%
COc1cc2c(cc1OC)C(=O)NCC(C)(C)O2,-30%
Cc1ccccc1Nc1nnc(SCC(=O)NC(=O)NCc2ccco2)s1,-6%
O=C(Cn1cc2c(n1)CCCCC2)NC1CCN(Cc2ccccc2)CC1,5%
Cc1nn(Cc2cccc(C(=O)Nc3ccn(Cc4c(F)c(F)cc(F)c4F)n3)c2)c(C)c1[N+](=O)[O-],-8%
CCOC(=O)N1CCC(NC(=O)c2ccc3c(c2)N(CC)CCS3)CC1,?
O=c1c2oc3ccccc3c2n(Cc2ccc(Cl)cc2)c(=O)n1Cc1ccc2c(c1)OCO2,1%
Cc1cc(C)c(NC(=O)C2CC(=O)N(C(C)C)C2)c(C)c1 (stereo not drawn),-26%
CCCc1ccc(NC(C)C(=O)Nc2ccc(S(=O)(=O)N3CCOCC3)cc2)cc1 (stereo not drawn),-18%
CC(C)(C)S(=O)N1Cc2cc(=O)n(Cc3ccccc3)c(CCO)c2[C@@H]1CCO (stereo partly drawn),5%
COC(=O)c1c(NC(=S)Nc2ccccc2Cl)sc(C)c1C,9%
Cc1cccc(NC(=O)C2CC(=O)N/C(=N/N=C/c3ccco3)S2)c1 (stereo not drawn),-11%
CCOc1ccccc1C(=O)NC1CCN(Cc2nnnn2C2CCCC2)CC1,-12%
Cc1nc2sc(C(=O)c3ccccc3)c(N)c2c2c1CCCC2,-2%
CCOc1ccc(NC(=O)c2ccc3c(c2)CCN3S(=O)(=O)CC)cc1,-6%
O=C(O)c1ccc(-c2cccc(Cl)c2)o1,-12%
Cc1ccc(C)c(S(=O)(=O)N2CCCCC2CCNC(=O)C(=O)NC2CC2)c1 (stereo not drawn),-2%
CC(C)N1CCc2c(sc(NC(=O)c3ccc(C(=O)c4ccccc4)cc3)c2C(N)=O)C1,9%
CCCCNC(=O)CCc1c(C)nc2nc(-c3cc(OC)cc(OC)c3)nn2c1C,-8%
O=C1/C(=C2\C(=O)N(Cc3ccc(F)cc3)c3ccccc32)SC(=S)N1CCS(=O)(=O)O,?
N#CC(C#N)=C(N)/C(C#N)=C/c1ccc(O)cc1,-25%
CC(C)(C)NC(=O)Cn1c(-c2nonc2N)nc2ccccc21,-8%
CN1CCN(C(=S)NC(=O)/C=C/c2ccccc2)CC1,5%
COc1ccccc1CNc1ncnc2c1nnn2C,7%
COc1ccc(OCC(=O)NS(=O)(=O)c2ccc(Cl)cc2)cc1,-7%
CC1=C(C(=O)OCC(C)C)C23C(=O)c4ccccc4C2(O1)OC(N)=C3C#N (stereo not drawn),27%
Cc1cccc(C)c1OCc1cc(C(=O)NCC2COCCO2)no1 (stereo not drawn),0%
Cn1c(=S)c2[nH]c(SCC3CCCO3)nc2n(C)c1=O (stereo not drawn),?
COc1ccc(CN2CCNC(=O)C2CC(=O)NCCc2nc(C)c3c(n2)CCC3)cc1C (stereo not drawn),0%
COc1ccc(NC(=O)C2CCCN2S(=O)(=O)c2cccc3nsnc23)c(OC)c1 (stereo not drawn),-9%
Cc1ccc(C(=O)NCc2ccccn2)cc1S(=O)(=O)N1CCOCC1,-10%
COc1ccc(C(CNC(=O)CCNS(=O)(=O)c2ccc(C)cc2)N2CCOCC2)cc1 (stereo not drawn),3%
CCC(C)N(C(=O)COC(=O)C1C(C(=O)OC)=C(C)NC(C)=C1C(=O)OC)C1CCS(=O)(=O)C1 (stereo not drawn),8%
NC(=O)CSc1nc2ccccc2c(=O)n1Cc1ccco1,31%[activator]
Cc1ccc(-c2nc(C(=O)NCc3ccccc3Cl)c3n2CCCCC3)cc1,-2%
CCC(=O)c1ccc(OCC(=O)OCC(=O)c2c(N)n(C)c(=O)n(C)c2=O)cc1,-16%
CCOC(=O)C1CCCN(C(=O)/C=C/c2ccc(OC)cc2)C1 (stereo not drawn),-2%
COc1cc(OC)c2ccc(=O)oc2c1C(CCN1CCCC(C)C1)c1ccc(N(C)C)cc1 (stereo not drawn),-2%&-15%
COc1ccc(NC(=O)COc2coc(CN3CCc4ccccc4C3)cc2=O)cc1,-14%
CCC(C(=O)NCCc1ccccc1)c1ccccc1 (stereo not drawn),-10%
CCN1C(=O)c2ccccc2S(=O)c2ccc(C(=O)NCc3ccc(Cl)cc3)cc21 (stereo not drawn),-7%
CCOC(=O)C1=C(CN2CCN(C(=O)c3ccco3)CC2)NC(=O)NC1c1ccccc1 (stereo not drawn),-7%
Cc1cnc(CN(C)C(=O)c2ccc3oc(Cc4ccc(Cl)cc4)nc3c2)[nH]1,28%
CCN(CC)C(=O)CSc1nnc2nnc3cc(OC)ccc3n12,3%
O=C(NCCCc1ccccc1)c1ccc2c(c1)sc1nc(-c3ccc(F)cc3)cn12,9%
CC(C)[C@H](NC(=O)c1ccccc1)C(=O)O,-12%
CN1CCC(N(C)C(=O)c2sc3cc(F)ccc3c2Cl)CC1,-20%
O=C(NCc1ccccn1)Nc1cccc(Cl)c1,15%
c1ccc2sc(NCC3CCCO3)nc2c1 (stereo not drawn),1%
CC(C)CC(C)N1CCC(n2nccc2NC(=O)CCc2ccccc2)CC1 (stereo not drawn),-4%
NS(=O)(=O)c1ccc(NC(=S)Nc2cc(Cl)c(Cl)cc2Cl)cc1,-16%
Fc1ccc(-c2noc3ncnc(NCCc4ccc(Cl)cc4)c23)cc1,-6%
C=CCn1c(SCC(=O)Nc2cccc3ccccc23)nnc1-c1cnccn1,3%
Cc1ccc(F)cc1NC(=O)C1C2CCC(O2)C1C(=O)O (stereo not drawn),-13%
CCCCOC(=O)c1ccc(NC(=O)CSC2=Nc3ccccc3C3CC=NN23)cc1 (stereo not drawn),?

This is a subset; count on the stated rates, not on these rows.
